# ClpP mod = qHTS Assay for Activators of ClpP | ATP-dependent Clp protease proteolytic subunit (Bacillus subtilis (strain 168)), P80244 | purified B. subtilis ClpP, FRET peptide cleavage, 20 min | Potency, µM (series often up to 57.5 µM), for inactives: at the highest dose activity change, negative = active | actives 1.9% (n = 340,000) | AID 651965, 2013; active = well fitted falling curve with a large enough effect; inconclusive = small, poorly fitted or top-dose-only effect; inactive = no such curve, though single readings can be large or run the other way; also: the source files actives as falling curves though it sought activators and does not explain the sign; nearly all actives have a fitted effect of over 65% in size; many hits overshoot -100%
# Target sequence (P80244 whole entry, looked up): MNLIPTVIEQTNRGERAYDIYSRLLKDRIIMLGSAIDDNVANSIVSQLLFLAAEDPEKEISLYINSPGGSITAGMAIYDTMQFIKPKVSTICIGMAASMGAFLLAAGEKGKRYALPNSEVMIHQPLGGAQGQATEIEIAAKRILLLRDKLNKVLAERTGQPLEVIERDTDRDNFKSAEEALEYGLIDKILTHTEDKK
#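 Purified B. subtilis ClpP, 10 microg/mL final in Tris/HCl pH8 with KCl, BSA, glycerol and Tween-20, cleaved an Abz/nitrotyrosine-quenched decapeptide. Fluorescence (ex 320, em 430) was read at 0 and 20 min at room temperature. Delta was normalized to 5.8 microM ADEP and DMSO/no-enzyme controls.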
# * marks the source's active call; other numbers are inactive results; ? = inconclusive. Potency is read from the fitted curve at half-maximal effect. The list is partial. The share of hits here may be higher or lower than overall.
SMILES,ClpP mod
COc1ccc(OC)c(CCNC(=O)CCc2cn(Cc3cc(C)ccc3C)c3ccccc23)c1,?
COc1ccc(Nc2cc(C(=O)NCCCN3CCN(c4ccc(OC)cc4)CC3)c3ccccc3n2)cc1,0.2%
CC(C(=O)Nc1cccc(C#N)c1)n1nc(-c2ccccc2)c2c(c1=O)CCCC2 (stereo unspecified),0.7%
Cc1cc(C(=O)OCC(=O)NC(=O)C2CCCCC2)ccc1[N+](=O)[O-],0.8%
Cc1cnc2c(C)cccc2c1C,-12.3%
CCn1cc(C(=O)NCc2ccccc2)c(=O)c2cc(S(=O)(=O)N3CCOCC3)ccc21,-5.6%
O=C(C1CCCN(S(=O)(=O)c2cccs2)C1)N1CCN(c2ccccc2F)CC1 (stereo unspecified),1.5%
O=C1C2=C(Nc3ccccc3SC2c2ccc(Cl)c(Cl)c2)c2ccccc21 (stereo unspecified),-2.4%
Cc1ccc(S(=O)(=O)c2nc(-c3cccs3)oc2N2CCC(C)CC2)cc1,-6.3%
COc1ccc(C(=O)Nc2nnc(S(=O)(=O)N3CCCc4ccccc43)s2)cc1,-3.9%
CCOC(=O)CSC1=Nc2ccccc2C2=NC(CCC(=O)NCc3ccc(OC)cc3)C(=O)N12 (stereo unspecified),4.2%
CCOc1cccc2cc(-c3nc4sc5c(c4c(=O)[nH]3)CCC(C)C5)c(=O)oc12 (stereo unspecified),-0.1%
CCOc1ccc(NS(=O)(=O)c2c(C)nc3sc(C)c(C)n3c2=O)cc1,-1.6%
COc1ccc(NC(=O)c2oc3ccccc3c2NC(=O)C2CCCCC2)c(OC)c1,-14.5%
Cc1ccc(C)c(N2CCN(CCCNC(=O)Nc3cc(Cl)ccc3C)CC2)c1,1.1%
CCN(CC)C(=O)c1sc2c(c1C)c(=O)n(Cc1ccccc1)c(=O)n2Cc1ccc(Cl)cc1,1.5%
Cc1cccc(OC(C)C(=O)N2CCC(c3nc4ccccc4o3)CC2)c1C (stereo unspecified),0.7%
CCOC(=O)c1cc(-c2ccccc2)n(-c2cccc(C(=O)Nc3cccc(C)c3)c2)c1C,-14.4%
Cc1ccc(CN(C(=O)c2ccc(C(C)(C)C)cc2)c2ccccn2)o1,0.2%
COc1ccc2c(c1)CCc1c(C(=O)Nc3ccccc3C(F)(F)F)noc1-2,-4.8%
O=C(Cn1c(=O)n(Cc2cccs2)c(=O)c2cccnc21)Nc1ccccc1F,-1.2%
Cc1ccc(CCNC(=O)c2ccc3c(c2)N(Cc2ccccc2)C(=O)c2ccccc2S3=O)cc1 (stereo unspecified),-0.9%
O=C(Cn1c(=O)nc(-c2ccccc2)c2cc(Cl)ccc21)NCc1ccc(Cl)cc1,4.4%
O=C(Nc1ccc(Cl)cc1)c1cc(S(=O)(=O)NC2CCCCCC2)ccc1F,-12.6%
CCOc1ccc(CCNC(=O)C2CCN(c3ncnc4c3nc3n4CCCCC3)CC2)cc1,0.3%

# Two consecutive records already listed:
SMILES,ClpP mod
O=C(Nc1ccc(Cl)cc1)c1cc(S(=O)(=O)NC2CCCCCC2)ccc1F,-12.6%
CCOc1ccc(CCNC(=O)C2CCN(c3ncnc4c3nc3n4CCCCC3)CC2)cc1,0.3%

# Other records follow:
SMILES,ClpP mod
CCOc1ccc(/C=C/c2nc(C#N)c(N3CCCCCC3)o2)cc1,4.4%
COc1ccc(NS(=O)(=O)c2ccc(-n3cccn3)cc2)cc1OC,-1.9%
CN(C(=O)Cn1c(=O)n(CCC(=O)NCc2ccc3c(c2)OCO3)c(=O)c2sccc21)c1ccccc1,0.1%
O=C(Nc1ccccc1Cl)c1sc2cccc(Cl)c2c1Cl,-1.6%
CC(=O)N1CCc2nc3sc(C(=O)Nc4ccc(Cl)cc4F)c(N)c3c(C(F)(F)F)c2C1,-2.1%
Cc1ccc(SCc2nc(-c3ccc(C(=O)Nc4cc(C)ccc4C)cc3)oc2C)cc1,?
Cc1nc(-c2ccccc2)sc1-c1ccc(SCC(=O)Nc2ccccc2)nn1,?
Cc1cc(C)c(NC(=O)Nc2sc3nc4n(c(=O)c3c2C)CCC(C)CC4)c(C)c1 (stereo unspecified),-4.4%
COc1ccc(N(Cc2nnc3n2CCCCC3)C(=O)Nc2cccc(C)c2)cc1Cl,0.1%
O=C(Cn1c(=O)n(Cc2ccco2)c(=O)c2sc3ccccc3c21)Nc1ccccc1C(F)(F)F,4.1%
O=C(Cn1ncc2c3ccccc3n(Cc3ccccc3F)c2c1=O)NCCCc1ccccc1,?
COc1ccc(NC(=O)C2CCN(S(=O)(=O)c3c(C)noc3/C=C/c3ccco3)CC2)cc1,-6.8%
CCCCc1c(C)nc2c(-c3ccc(Cl)cc3)c(C)[nH]n2c1=O,-15.9%
Cc1c(Cl)cccc1NC(=O)CCn1nc(C)c2c(C)n(-c3ccccc3)nc2c1=O,0.0%
COc1ccc(NC(=O)c2nnn(Cc3nc(-c4cc(OC)c(OC)c(OC)c4)oc3C)c2C)cc1,-0.2%
CCCCN(C)S(=O)(=O)c1cc(-c2cc(C)no2)ccc1C,-1.0%
COc1ccccc1NC(=O)C1=C(C)Nc2c(C(=O)Nc3cccc(C)c3)cnn2C1c1ccccc1Cl (stereo unspecified),?
CC(C)(C)OC(=O)N1CCC(c2c(C(=O)NCCN3CCC(Cc4ccccc4)CC3)cnn2-c2ccc(F)cc2)CC1,1.3%
Cc1ccc(CNC(=O)c2ccc(NC(=O)N3CCSc4ncccc43)cc2)cc1,4.0%
Cc1cc(C)n2nc(SCC(=O)Nc3cccc(C(F)(F)F)c3)nc2n1,-3.8%
CNc1ncnc2c1cnn2-c1ccc(C)c(C)c1,4.1%
Cc1ccc(C)c(CS(=O)(=O)c2cn(CC(=O)N(C(C)C)C(C)C)c3ccccc23)c1,0.2%
CCOC(=O)C1CCN(C(=O)Cn2nc(CC)n3c(cc4occc43)c2=O)CC1,-8.3%
CCCCCn1c(=O)[nH]c2cc(C(=O)NC(C)CC)ccc2c1=O (stereo unspecified),-11.5%
COc1ccccc1NC(=O)c1cccc(S(=O)(=O)N2CCCCCC2)c1,-2.8%

# Going on with the list:
SMILES,ClpP mod
COc1ccc(CNC(=O)CSCc2ccc(C)cc2)c(OC)c1,1.1%
CCOC(=O)c1c(C)oc2ncnc(N3CCN(c4ccccc4OC)CC3)c12,-2.3%
CC1(C)OC(=O)C2(Cc3cc([N+](=O)[O-])ccc3N3CCCCCC32)C(=O)O1 (stereo unspecified),-4.6%
CN(C)CCNC(=O)c1ccc2c(c1)NC(=O)C(CS(=O)(=O)Cc1cccc(Br)c1)N2 (stereo unspecified),31.6µM*
CCc1cccc2c(C(O)c3c[nH]c4ccccc34)c[nH]c12 (stereo unspecified),-18.1%
CCOC(=O)c1c(C)[nH]c(C)c1S(=O)(=O)N(C)CC(=O)Nc1ccc(OC)cc1,0.8%
Fc1ccc(CNc2nc3ccc(Cl)cc3n3nnnc23)cc1,-13.7%
CCN(CC)S(=O)(=O)c1nnc(NC(=O)c2ccc(Br)cc2)s1,-8.1%
CCOc1ccc(-c2cc3c(=O)n(CC(=O)Nc4c(C)cccc4C)ccn3n2)cc1,-3.2%
Cc1oc(-c2ccc(C(=O)NCc3ccccc3Cl)cc2)nc1CN1CCc2ccccc21,-1.5%
CC(C)Oc1ccc(CNC(=O)Nc2ccc3c(c2)N(C)C(=O)c2ccccc2S3)cc1,-3.0%
CCOC(=O)c1cc2c(=O)n3ccccc3nc2n(Cc2ccco2)c1=NC(=O)c1c(F)cccc1Cl,4.1%
COc1ccc(OC)c(NC(=O)C(C)n2nc(C)c3c(C)n(-c4ccccc4)nc3c2=O)c1 (stereo unspecified),1.9%
Cc1ccc(-c2nc(CS(=O)(=O)CC(=O)NC(C)CCc3ccccc3)c(C)o2)cc1 (stereo unspecified),-15.4%
COc1cccc(NC(=O)C(Cc2ccccc2)NS(=O)(=O)c2ccc3c(c2)oc(=O)n3C)c1 (stereo unspecified),0.3%
CCCCN(CC)CCCNC(=O)Cn1ncc2c3ccccc3n(Cc3ccc(F)cc3)c2c1=O,-17.4%
Cc1nn(-c2ccccc2)c(-n2cccc2)c1C(=O)NCc1ccccc1Cl,-0.8%
COc1ccc(CCN2C(=O)N(c3ccccc3)C(=O)C2CC(=O)Nc2ccccc2)cc1 (stereo unspecified),-5.2%
CCCCn1c(=N)n(CCCOc2ccc(F)cc2)c2ccccc21,1.4%
Cc1ccc(-n2ncc(C(=O)NC3CCCC3)c2C2CCN(C(=O)OC(C)(C)C)CC2)c(C)c1,1.9%
CCOC(=O)c1c(C)[nH]c(C)c1S(=O)(=O)N1CCCC(C(=O)NCc2ccccc2Cl)C1 (stereo unspecified),-3.6%
Cc1ccc(CNC(=O)C(=O)NCC(c2ccc3c(c2)OCO3)N2CCOCC2)cc1 (stereo unspecified),-2.6%
O=C(NCc1ccco1)c1ccc2c(c1)N(Cc1c(F)cccc1Cl)C(=O)c1ccccc1S2,-5.3%
O=C(OCC1CCCO1)c1ccc2c(c1)N(Cc1cccc(F)c1)C(=O)c1ccccc1S2(=O)=O (stereo unspecified),-2.5%
Cc1[nH]c2ccccc2c1C(=O)C(C)Sc1nc2ccccc2c(=O)n1Cc1cccnc1 (stereo unspecified),-2.1%

# Retrieved by structure from the entries so far:
SMILES,ClpP mod
Cc1c(Cl)cccc1NC(=O)CCn1nc(C)c2c(C)n(-c3ccccc3)nc2c1=O,0.0%
CCCCc1c(C)nc2c(-c3ccc(Cl)cc3)c(C)[nH]n2c1=O,-15.9%
O=C1C2=C(Nc3ccccc3SC2c2ccc(Cl)c(Cl)c2)c2ccccc21 (stereo unspecified),-2.4%
CCn1cc(C(=O)NCc2ccccc2)c(=O)c2cc(S(=O)(=O)N3CCOCC3)ccc21,-5.6%
COc1ccc(C(=O)Nc2nnc(S(=O)(=O)N3CCCc4ccccc43)s2)cc1,-3.9%
Cc1ccc(SCc2nc(-c3ccc(C(=O)Nc4cc(C)ccc4C)cc3)oc2C)cc1,?
CN(C(=O)Cn1c(=O)n(CCC(=O)NCc2ccc3c(c2)OCO3)c(=O)c2sccc21)c1ccccc1,0.1%

# Additional records follow.
SMILES,ClpP mod
Cc1cc(C)cc(OC(C)C(=O)Nc2nc3c(s2)CCCC3)c1 (stereo unspecified),-0.3%
CCN(CCCNC(=O)c1ccc(Sc2ccc(C)cc2)c(NC(C)=O)c1)c1cccc(C)c1,-13.2%
Cc1ccc(-c2nnc(Nc3ccc(Cl)cc3)c3ccccc23)cc1S(=O)(=O)NCC1CCCO1 (stereo unspecified),-14.1%
CCCc1nn2c(=O)cc(COC(=O)c3ccccc3NC(=O)c3ccc(OCC)cc3)nc2s1,-0.8%
CCOC(=O)CC(NC(=O)Cn1nnc(-c2ccc(C(F)(F)F)cc2)n1)c1ccc(OC)cc1 (stereo unspecified),2.9%
Cc1ccc(C)c(N2CCN(C(=O)CCC(=O)Nc3ccc4nc(N5CCCCC5)cc(C)c4c3)CC2)c1,4.1%
O=C(Cn1c(=O)n(Cc2nc(-c3ccccc3)no2)c(=O)c2ccccc21)Nc1cccc(Cl)c1,?
O=C(NCc1ccccc1)c1nnc(Cc2cccc(F)c2)o1,2.0%
CCOc1ccccc1NC(=O)N1CCC2(CC1)Oc1ccccc1C(=O)N2Cc1ccccc1F,1.1%
O=C1CS(=O)(=O)C2(C(=O)N(Cc3ccc(F)cc3)c3ccccc32)N1c1cccc(C(F)(F)F)c1 (stereo unspecified),1.0%
CCc1nnc2c(N3CCN(c4cc(Cl)ccc4C)CC3)nc3ccccc3n12,-1.0%
O=C(Nc1nc(-c2ccc3c(c2)OCCO3)cs1)C1CC(=O)N(c2ccc3c(c2)OCCO3)C1 (stereo unspecified),-6.5%
COc1ccc2c(CNCCc3cccs3)c(C(=O)O)n(Cc3ccc(F)cc3Cl)c2c1,-29.2%
Cc1ccc(CN(Cc2ccco2)C(=O)c2oc3cc(Br)ccc3c2C)cc1,-2.1%
Cc1ccc(-n2c(=O)c3ccc(C(=O)NCc4ccccc4Cl)cc3n(CC(=O)Nc3ccc(C)cc3C)c2=O)cc1,-0.9%
COc1ccccc1N1CCN(S(=O)(=O)c2ccc3[nH]c4c(c3c2)CCCC4)CC1,?
CN(C)c1ccc(/C=C/c2cc(N(C)C)nc3ccccc23)cc1,3.3%
CCn1c(CN2CCC(C)CC2)nc2cc(NC(=O)c3cccc([N+](=O)[O-])c3)ccc21,0.7%
Cc1ccc2c(c1)-c1onc(C(=O)N(C)c3ccc(F)cc3)c1CO2,-2.5%
CCOC(=O)c1cc2c(=O)n3ccccc3nc2n(CC2CCCO2)c1=NC(=O)c1cccc(C(F)(F)F)c1 (stereo unspecified),3.9%
CSc1ccc(-c2nc3cccc(C)n3c2Nc2ccc(Cl)cc2)cc1,3.9%
CCCn1c2ccccc2c2cnn(CC(=O)NCCCN(Cc3ccccc3)C(C)C)c(=O)c21,4.3%
CC1=C(C(=O)Nc2ccc(Cl)cc2)C(c2ccccc2F)n2nc(SCc3cccc(Cl)c3)nc2N1 (stereo unspecified),-0.3%
CNC(=O)C1CCC(Cn2c(=O)c3sccc3n(Cc3ccc(F)cc3)c2=O)CC1 (stereo unspecified),-1.2%
CC1=C(C(=O)Nc2ccccc2)C(c2cc(Br)ccc2F)n2ncc(C(=O)Nc3ccccc3)c2N1 (stereo unspecified),3.8%
O=C(CCNS(=O)(=O)c1ccc2c(c1)CCCC(=O)N2)Nc1cccc(Cl)c1,-22.7%

# In the list so far, these have a cyano group.
SMILES,ClpP mod
CC(C(=O)Nc1cccc(C#N)c1)n1nc(-c2ccccc2)c2c(c1=O)CCCC2 (stereo unspecified),0.7%
CCOc1ccc(/C=C/c2nc(C#N)c(N3CCCCCC3)o2)cc1,4.4%

# Assay outcomes from PubChem BioAssay.
